Marburg entry inh = qHTS for inhibitors of binding or entry into cells for Marburg Virus; Marburg virus pseudotyped entry inhibition, cell reporter; control for the full effect not named in the record; about a third of the inactives were read at about 46 µM; Potency, µM (series often up to 37.8 µM), inactives show at the highest dose activity change, negative = inhibition, usual class: inhibitors; actives 1.8% (n = 300,000); active = well fitted inhibition curve with a large enough effect; inconclusive = small, poorly fitted or top-dose-only effect, or effect the other way; inactive = flat fitted curve, though single readings scatter; tested in HEK293 cells; about a fifth of its hits are not listed in these tables; note: % is set by controls: 0 for no effect and ±100 for the full control effect; luciferase read-out
Lassa entry inh = qHTS for Inhibitors of binding or entry into cells for Lassa Virus | Lassa virus pseudotype entry inhibition, cell reporter; control for the full effect not named in the record | Potency, µM (highest dose often 37.9 µM), without a hit: at the highest dose activity change, negative = inhibition, most hits filed as inhibitors | actives 1.2% (n = 300,000) | AID 540256, 2011; active means well fitted inhibition curve with a large enough effect; inconclusive means small, poorly fitted or top-dose-only effect, or effect the other way; inactive means flat fitted curve, though single readings scatter; tested in HEK293 cells; note: % is set by controls: 0 for no effect and ±100 for the full control effect; nearly all actives have a fitted effect of over 50% in size; luciferase read-out
Cruzain noTriton = qHTS Assay for Promiscuous and Specific Inhibitors of Cruzain (without detergent). actives 2.3% (n = 200,000). AID 1476, 2009. Cruzipain (Trypanosoma cruzi), P25779. Potency, µM, inactives show max response, negative = inhibition, most hits filed as inhibitors. purified cruzain, Z-FR-AMC fluorescence, no detergent; active = well fitted curve in the direction sought with a large enough effect; inconclusive = small, poorly fitted or top-dose-only effect, or another doubt; inactive = no such curve, though single readings can be large; an effect the other way counts as inactive or inconclusive;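 note: plate controls were enzyme without inhibitor for no effect and buffer without enzyme for full effect; nearly all actives have a fitted effect of over 40% in size; top concentration of the series not given in the record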
Target sequence (P25779 123-467 limits assumed): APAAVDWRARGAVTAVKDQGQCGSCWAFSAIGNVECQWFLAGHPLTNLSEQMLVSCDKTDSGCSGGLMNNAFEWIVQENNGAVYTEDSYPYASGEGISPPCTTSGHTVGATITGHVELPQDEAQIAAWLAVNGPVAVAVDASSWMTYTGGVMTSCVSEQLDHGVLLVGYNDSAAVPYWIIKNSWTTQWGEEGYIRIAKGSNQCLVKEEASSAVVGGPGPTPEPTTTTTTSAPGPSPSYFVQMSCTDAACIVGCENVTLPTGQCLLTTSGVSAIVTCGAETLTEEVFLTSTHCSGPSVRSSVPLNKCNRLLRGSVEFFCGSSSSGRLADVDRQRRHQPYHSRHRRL
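Detergent-free condition (0.00005% Triton X-100) in acetate buffer pH 5.5 with DTT. 1.5 nM enzyme and compound were pre-mixed 15 min, then 2 uM Z-FR-AMC substrate added; reaction progress from fluorescence change between first and third reads (60 s).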
Cruzain inh Det = qHTS Assay for Promiscuous and Specific Inhibitors of Cruzain (with detergent). purified cruzain, Z-FR-AMC fluorescence, 0.01% Triton. Potency, µM, without a hit: max response, negative = inhibition, most hits filed as inhibitors. actives 0.43% (n = 200,000). AID 1478, 2009; active = well fitted curve in the direction sought with a large enough effect; inconclusive = small, poorly fitted or top-dose-only effect, or another doubt; inactive = no such curve, though single readings can be large; an effect the other way counts as inactive or inconclusive;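 note: plate controls were neutral wells for no effect and buffer without enzyme for full effect; nearly all actives have a fitted effect of over 40% in size; top concentration of the series not given in the record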
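Enzyme 1.5 nM, Z-FR-AMC 2 uM, NaOAc 100 mM pH 5.5, DTT 5 mM, Triton X-100 0.01%; 15 min RT compound preincubation; kinetic ex360/em450, 60 s delta.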
NS1 inh = qHTS Assay for Inhibitors of Influenza NS1 Protein Function; S. cerevisiae slowed by influenza A NS1, growth recovery by OD600; Potency, µM (top dose mostly 46.1 µM), inactives show at the highest dose activity, positive = more growth; actives 0.4% (n = 270,000); AID 2326, 2010; note: actives are rising curves; nearly all actives have a fitted effect of over 50% in size
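S. cerevisiae expressing influenza A NS1, grown in glucose, washed, then diluted 1:100 into pH 6.0 -URA galactose medium with 23 nl compound. Growth recovery read as OD600; NS1-free strain serves as control.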
SARS PLP yeast = qHTS of Yeast-based Assay for SARS-CoV PLP; S. cerevisiae expressing SARS-CoV PLpro, growth rescue; control for the full effect not named in the record; Potency, µM (top dose mostly 32.9 µM), inactives show at the highest dose activity, positive = growth rescue; actives 0.19% (n = 330,000); note: 0% is about no effect; nearly all actives have a fitted effect of over 55% in size; growth read by luminescence after 48 h
StopGo reporter = High Throughput Screening for Foot and Mouth Disease Virus Antivirals; Potency, µM (titrated, usually from 57.9 µM), for the others: at the top dose signal change, negative = less light; actives 1.2% (n = 410,000); human cells with a luciferase reporter of 2A StopGo recoding; control for the full effect not named in the record; AID 1159524, 2015; active = well fitted falling curve with a large enough effect; inconclusive = small, poorly fitted or top-dose-only effect; inactive = no such curve, though single readings can be large or run the other way; tested in HEK293T cells; note: % is set by controls: 0 for no effect and ±100 for the full control effect; nearly all actives have a fitted effect of over 45% in size; luciferase light after 4 h
RE007 growth inh = qHTS Assay for Inhibitors of the HIV-1 protein Vpr | actives 0.21% (n = 360,000) | S. pombe RE007 Vpr strain, BacTiter-Glo ATP luminescence, 24 h; control for the full effect not named in the record | Potency, µM (titrated, usually from 92.2 µM), for the others: at the highest dose activity change, negative = less growth; active = well fitted falling curve with a large enough effect; inconclusive = small, poorly fitted or top-dose-only effect; inactive = no such curve, though single readings can be large or run the other way;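 note: % is set by controls: 0 for no effect and ±100 for the full control effect; nearly all actives have a fitted effect of over 50% in size; the assay follows cell death caused by Vpr and the record does not say whether a fall means rescue or toxicity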
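Fission yeast strain RE007, carrying one chromosomally integrated HIV-1 vpr copy, was seeded at OD 0.01 in PMG+AL medium with 23 nL pinned compound. After 24 h at 30 °C and 99% humidity, viability was read by BacTiter-Glo luminescence.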
Numbers without * were called inactive; u = inconclusive; x = no result given; & = joins results of further samples; [ ] = dose if it differs, or a comment. Unless noted, calls come from the whole dose curve; as a rule, active means well fitted rising curve with a large enough effect; inconclusive means small, poorly fitted or top-dose-only effect; inactive means no such curve, though single readings can be large or run the other way. Potency is the fitted concentration of half-maximal effect.

SMILES	Marburg entry inh	Lassa entry inh	Cruzain noTriton	Cruzain inh Det	NS1 inh	SARS PLP yeast	StopGo reporter	RE007 growth inh
Cc1ccccc1NC(C)C(=O)N/N=C/c1c[nH]c2ccccc12 (stereo unspecified)	-15%[46.1 µM]	-7%	x	x	6%	1%	-17%	-5%
O=S(=O)(NC1CCCCC1N1CCN(c2ccc(F)cc2)CC1)c1ccc(Cl)cc1 (stereo unspecified)	x	x	x	x	-13%	-19%	-25%	-6%
CCC(C)N=C1CC(C)(C)CC(=O)/C1=C(/O)Cc1ccccc1 (stereo unspecified)	u	-2%[46.1 µM]	-5%	-5.2%	-2%	1%	0%	-13%
O=C1OCc2cc(NC(=O)C34CC5CC(CC(C5)C3)C4)ccc21	3%[46.1 µM]	11%	-2%	-3.0%	-9%	-11%	-7%	-13%
Cc1ccc(/C(O)=C2\C(=O)C(=O)N(c3cc(C)on3)C2c2cccc(Br)c2)cc1 (stereo unspecified)	2%	8%	u	-12%	u	4%	-13%	0%
C=C(C)Cn1c(SCC(=O)c2ccccc2)nc2sc3c(c2c1=O)CCCC3	x	u	5%	-2.1%	x	x	-21%	x
C/C(=N\NC(=O)c1cccc(S(=O)(=O)Nc2ccccc2Cl)c1)c1ccco1	-1%	0%	-11%	-6.1%	u	-11%	-12%	13%
O=C(NC(=S)NCCC1=CCCCC1)c1cccnc1	3%[46.1 µM]	15%	x	x	8%	0%	35%[activator]	-4%
COc1cc2c(cc1OC)CN(C(=O)c1cc(S(=O)(=O)N3CCOCC3)c(Cl)cc1Cl)CC2	-10%[46.1 µM]	-22%[46.1 µM]	x	x	4%	0%	u	8%
Cc1ccc(CN2CCN(/N=C/c3ccc(O)c(O)c3)CC2)cc1	x	x	x	x	25%	12%	-24%	-8%
Cc1cc(Nc2cccc(O)c2)c2cccc(Br)c2n1	1%[46.1 µM]	18%[46.1 µM]	-19%	-9.8%	x	x	-23%	x
O=C(COC(=O)Cc1ccc(S(=O)(=O)N2CCOCC2)s1)Nc1ccc2c(c1)OCO2	4%[46.1 µM]	-13%	1%	-1.6%	1%	2%	2%	27%
CCc1ccc(NC(=O)CSc2nc(CSc3ccc(C)cc3)cc(=O)[nH]2)cc1	0%[46.1 µM]	-3%	x	x	-3%	-1%	-3%	0%
CCn1ccc(C(=O)NCc2ccc3c(c2)OCO3)n1	x	x	x	x	7%	26%	-7%	2%
Cc1cc(=O)n(Cc2cccc(Cl)c2)c2c1c(C)nn2-c1ccccc1	x	-4%[46.1 µM]	-8%	-0.5%	x	x	-4%	x
Cc1ccc(S(=O)(=O)NCCN2CCOCC2)s1	x	x	x	x	-3%	-13%	9%	9%
NC(=O)C1CCN(C(=O)CCC(=O)c2cccs2)CC1	10%[46.1 µM]	12%[46.1 µM]	x	x	x	-18%	3%	-1%
Cc1onc(-c2c(F)cccc2Cl)c1C(=O)c1ccccc1	0%[14.2 µM]	-16%	x	x	-6%	0%	u	3%
CCCCN1CCc2nc(N3CCN(c4ncccn4)CC3)ncc2C1	x	-14%[46.1 µM]	-1%	-0.5%	x	x	0%	x
Cc1cccc(NC(=O)C2CCN(C(=O)c3ccc(F)cc3)CC2)n1	u	-12%	x	x	x	-2%	-7%	13%
CCOc1ccc(NS(=O)(=O)c2ccc(C(=O)NCC3(N4CCCCC4)CCCCC3)cc2)cc1	x	x	x	x	3%	-8%	-14%	-13%
CCN1C(=O)/C(=C\c2ccncc2)SC1=Nc1ccc(C)c(C)c1	u	8%	7%	-11%	5%	-38%	u	3%
COc1ccc2c(c1OC)C(=O)N1N=C(c3ccc(Br)cc3)CC21 (stereo unspecified)	0%	7%	-2%	-0.4%	-8%	-60%	-6%	-7%
C=CCNC(=O)COc1ccc(S(=O)(=O)Nc2ccc(OCC)cc2)cc1	-38%	u	5%	-2.6%	0%	-7%	-1%	-1%
COC(=O)c1ccccc1NC(=O)/C=N/O	2%	x	-3%	1.1%	4%	-5%	6%	x
SMILES	Marburg entry inh	Lassa entry inh	Cruzain noTriton	Cruzain inh Det	NS1 inh	SARS PLP yeast	StopGo reporter	RE007 growth inh
Cc1ccc(/C=N/NC(=O)CN(Cc2ccccc2)S(=O)(=O)c2ccc3c(c2)OCCO3)cc1	u	u	1%	-4.0%	13µM*	-3%	20%	3%
COc1cc(OC)c2c(C)c(Cl)c(=O)oc2c1	5%	u	6%	7.4%	-4%	-3%	3%	-1%
Cc1ccc2c(c1)N(CCCC(=O)NCCCN1CCCCC1)C(=O)CO2	x	x	x	x	-11%	-6%	u	-11%
CCC(C)Oc1nc2ccccc2nc1NS(=O)(=O)c1ccccc1 (stereo unspecified)	5%	1%	-9%	-0.9%	6%	4%	-5%	-15%
O=C(OCc1ccccc1Cl)c1ccc(-c2nnn(Cc3ccc(F)cc3)n2)cc1	u	4%[46.1 µM]	11%	3.1%	x	x	-4%	x
Nc1cccc(Nc2ncnc3ccccc23)c1	x	x	x	x	3%	-8%	17%	13%
O=C(C1=C[C@H](c2ccccc2)C[C@H](OCc2ccc(CO)cc2)O1)N1CCN(Cc2ccc3c(c2)OCO3)CC1	x	x	x	x	-10%	-1%	-6%	-4%
Cc1ccc(NC(=O)CSc2nnc3[nH]c(=O)cc(C)n23)cc1Cl	x	-3%[46.1 µM]	-3%	-1.0%	x	x	-10%	x
O=S(=O)(c1cnccc1N1CCN(/N=C/c2ccccc2)CC1)N1CCCCC1	-1%	-10%	u	-5.2%	0%	-4%	-24%	2%
O=C1Cc2cc(NS(=O)(=O)c3ccc(Cl)cc3)cc3c2N1CCC3	0%	-2%	x	x	x	-1%	11%	4%
CC(C)NC(=O)COc1ccc(S(=O)(=O)N2CCCC2)cc1	7%	1%	x	x	-7%	-3%	7%	-10%
CC(C)NC(=O)CN1CCN(Cc2nc(-c3cccs3)no2)CC1	7%[46.1 µM]	-8%[46.1 µM]	x	x	-1%	0%	-10%	-11%
c1ccc2c(-c3c[nH]c4ccccc34)c3ccccc3nc2c1	u	-7%	14%	-8.9%	-12%	-31%	-36%	-2%
Cc1ccc(S(=O)(=O)[N-]c2nc3ccccc3nc2-[n+]2cc(C)cc(C)c2)cc1	x	x	x	x	-5%	0%	37%[activator]	0%
CCc1cc(-c2n[nH]c(C)c2-c2nc3ccccc3n2C)c(O)c(CN2CCN(C)CC2)c1O	u	-10%	-6%	-1.0%	-8%	22%	-5%	-16%
Cc1ccc2c(c1)c1c(n2CC(O)CN2CCC(C)CC2)CCCC1 (stereo unspecified)	x	x	x	x	0%	7%	-19%	-11%
O=C(Nc1ccc(Cl)c(C(F)(F)F)c1)C1CCN(S(=O)(=O)c2cccc3nonc23)CC1	u	u	-21%	-13%	x	x	32µM*	x
CCc1nc2nc(C)c(NS(=O)(=O)c3ccc(C(C)(C)C)cc3)c(=O)n2[nH]1	-4%[46.1 µM]	15%[46.1 µM]	8%	-0.1%	x	x	6%	x
COc1ccc(N(CC(=O)NCCc2ccc(C)cc2)S(=O)(=O)c2c(C)noc2C)cc1	x	x	x	x	-3%	-2%	-22%	12%
CCN(CC)C(=O)COc1ccc2c3c(c(=O)oc2c1)CCCC3	u	0%[46.1 µM]	x	x	9%	5%	-11%	-2%
COc1ccc2nc(NC(=O)CCNC(=O)c3ccccc3Cl)sc2c1	u	-5%	x	x	x	2%	-2%	-2%
CCOC(=O)c1ccccc1NC(=O)N1CCN2CCCCC2C1 (stereo unspecified)	x	-7%[46.1 µM]	5%	-2.0%	x	x	0%	x
Cc1ccc(CNc2c(C)c(C)nc3nncn23)cc1	u	27%[46.1 µM]	0%	-2.4%	x	x	u	x
CCc1ccc(/C=N/NC(=O)c2nnn(-c3nonc3N)c2CN2CCOCC2)cc1	x	x	x	x	-14%	-4%	u	-8%
C[C@@H]1NC(=O)c2cc([N+](=O)[O-])cc(I)c2NCC[C@@H](C(N)=O)NC(=O)[C@H](CC(N)=O)NC1=O	15%	3%	-4%	-5.3%	1%	-1%	0%	-6%
SMILES	Marburg entry inh	Lassa entry inh	Cruzain noTriton	Cruzain inh Det	NS1 inh	SARS PLP yeast	StopGo reporter	RE007 growth inh
COc1cccc(CNS(=O)(=O)c2cc(Br)cc3c2N(C(C)=O)C(C)C3)c1 (stereo unspecified)	16%[46.1 µM]	-14%[46.1 µM]	-1%&5%	-2.3%&5.2%	-8%	-3%	33%&52%[activator]	-4%
COc1ccccc1NCCC(=O)OCC(=O)NC1CC1	x	x	1%	6.3%	7%	-1%	5%	2%
COc1cc(/C=C/C(=O)Nc2ccc(C)cc2)cc(OC)c1OC	3%	u	u	-8.7%	-15%	-27%	-7%	10%
CC(=O)c1ccc(N2CCN(c3ccc(NC(=O)c4ccc(F)cc4)cc3C(=O)O)CC2)cc1	x	11%[46.1 µM]	1%	1.8%	x	x	0%	x
Cc1ccccc1Nc1nc(CSc2nnc(-c3ccoc3C)n2C)cs1	-1%	-9%	-29%	2.8%	7%	-9%	0%	-3%[3.69 µM]
CCOC(=O)N1CCC(NC(=O)c2cc(COc3c(C)cccc3C)on2)CC1	3%[46.1 µM]	-7%[46.1 µM]	x	x	-15%	13%	-29%	2%
Cc1cccc(C)c1NC(=O)CS(=O)(=O)c1nc(-c2ccc(Cl)cc2)cn1-c1ccccc1	u	-27%[46.1 µM]	-4%	u	x	x	32%[activator]	x
COc1ccccc1Oc1c(C)oc2c(CN3CCN(C)CC3)c(O)ccc2c1=O	-3%	x	3%	3.2%	u	0%	x	x
COc1cccc(CNC(=O)Cn2c(=O)oc3cc(S(=O)(=O)N4CCC(C)CC4)ccc32)c1	-19%[46.1 µM]	-12%[46.1 µM]	12%	-9.0%	x	x	-24%	x
CC(C)[C@H](NC(=O)c1ccccc1)C(=O)OCC(=O)NCCC1=CCCCC1	20%	-11%	-12%	-12%	-11%	16%	-5%	4%
COc1ccc(-c2coc3c(CN4CCCCC4)c(O)c(CN4CCCCC4)c(O)c3c2=O)cc1	x	x	u	u	u	0%	x	x
COc1ccc(C(=O)NCCNC(=O)c2ccc(C)nc2)cc1	0%[46.1 µM]	20%	x	x	-11%	-2%	-17%	6%

From PubChem BioAssay
